YopH inh = blocks Yersinia enterocolitica YopH tyrosine phosphatase. actives 0.16% (n = 140,000). inhibition, %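 (about 10 µM by stock and volumes)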. fluorescence Ex485/Em525;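 active means inhibition of 50% or more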;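 further: controls were vehicle for no effect and minimum signal wells for full effect; inactives centre near -20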
RecA intein inh = inhibitors of M. tuberculosis RecA intein splicing | actives 0.75% (n = 290,000) | inhibition, %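 (about 9 µM by stock and volumes)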 | cell-free RecA intein splicing, fluorescence | AID 2221; in the data active means inhibition above about 30%;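 further: 0% = vehicle wells and 100% = reference inhibitor control wells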
Target sequence (P9WHJ3 whole entry, looked up): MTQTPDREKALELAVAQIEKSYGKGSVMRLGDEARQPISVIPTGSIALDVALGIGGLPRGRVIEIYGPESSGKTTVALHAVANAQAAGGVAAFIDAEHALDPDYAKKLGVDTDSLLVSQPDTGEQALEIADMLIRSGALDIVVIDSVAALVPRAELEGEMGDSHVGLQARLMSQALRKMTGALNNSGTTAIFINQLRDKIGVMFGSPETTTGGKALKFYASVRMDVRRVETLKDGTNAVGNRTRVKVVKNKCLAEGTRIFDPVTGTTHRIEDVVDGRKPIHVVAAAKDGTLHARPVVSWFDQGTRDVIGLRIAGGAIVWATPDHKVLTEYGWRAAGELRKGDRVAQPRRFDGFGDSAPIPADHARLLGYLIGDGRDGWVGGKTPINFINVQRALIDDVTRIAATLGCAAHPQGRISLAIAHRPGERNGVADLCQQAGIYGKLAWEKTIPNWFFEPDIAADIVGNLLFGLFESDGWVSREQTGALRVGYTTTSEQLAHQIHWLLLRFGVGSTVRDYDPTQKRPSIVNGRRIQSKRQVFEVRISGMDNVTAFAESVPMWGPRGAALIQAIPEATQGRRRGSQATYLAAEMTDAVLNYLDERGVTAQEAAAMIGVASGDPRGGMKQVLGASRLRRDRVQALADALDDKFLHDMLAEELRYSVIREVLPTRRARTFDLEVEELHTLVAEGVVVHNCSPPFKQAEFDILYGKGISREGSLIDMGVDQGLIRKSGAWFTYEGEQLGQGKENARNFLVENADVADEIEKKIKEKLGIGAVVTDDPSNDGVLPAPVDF
Mtb bLac sens = beta-lactam sensitization of Mtb H37Rv | M. tuberculosis H37Rv growth with meropenem, percent inhibition; hits of this screen are not shown here | inhibition, % at 25 µM | actives 0.27% (n = 330,000) | AID 434955;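 active means about 74% or more and at least 40 points above the plate without the antibiotic, then above 30% in a dose series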;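 further: growth measured after seven days incubation then overnight dye step; 0% = bacteria only wells and 100% = bacteria with antibiotic; twin plates without the antibiotic show which effects depend on it; some results filed as inactive read as strong as hits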
Arbovirus anti = arbovirus infection inhibition; arbovirus infection cell-based antiviral screen; inhibition, % at 10 µM; actives 0.37% (n = 200,000); AID 1251;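 active means inhibition from about 30%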;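 further: bluetongue infection of BSR cells; cell survival read as ATP light after 72 h; 0% = infected wells without compound and 100% = uninfected wells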
Mtb H37Rv = M. tuberculosis H37Rv growth inhibitors, H37Rv strain (AID 1626) | one-dose inhibition, % at 10 µM; IC50 in µM for titrated hits | M. tuberculosis H37Rv growth inhibition; higher % means a stronger effect | actives 0.95% (n = 220,000);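 active means confirmed in a dose series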;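 further: bacteria incubated seven days before Alamar blue readout; 0% = bacteria only wells and 100% = bacteria with antibiotic wells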
Arbovirus anti repeat = recorded beside Arbovirus anti, whose call it bears; inhibition, %; measured here: 10K subset replicate screen; many hits read low in the repeat;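 first of two repeat runs on a subset; 0% = infected and 100% = uninfected wells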
Starred values were filed as active, the others as inactive; / = no result given. Some of the compounds tested; count on the stated rates, not on these rows.

SMILES	YopH inh	RecA intein inh	Mtb bLac sens	Arbovirus anti	Mtb H37Rv	others
O=C(CN1C(=O)C2C3CC(C(Br)C3Br)C2C1=O)OCC(=O)c1cccc([N+](=O)[O-])c1 (stereo unspecified)	/	-0.5	7	-3	2%
Cc1cccc2c(=O)cc(C)n(CC(=O)N3CCCCC3)c12	-43	0.3	-2	0	-2%
CCCC(=O)Nc1nnc(CC(=O)N2CCCC2)s1	9	-1.0	-3	2	4%
CCCCn1c(NC(=O)c2ccc(Br)o2)c(C(=O)OCC)c2nc3ccccc3nc21	4	-25	4	24	12%
Cc1cc(NC(=O)CN2C(=O)NC3(CCCCCC3)C2=O)no1	/	-2.2	0	/	4%
Cc1c(N=Cc2cc3c(cc2[N+](=O)[O-])OCO3)cccc1[N+](=O)[O-]	/	-11	3	/	/
O=C(CNC(=O)/C=C/c1ccccc1)N=Nc1c(O)n(Cc2ccccc2)c2ccccc12	-21	0.1	5	1	-5%
Cc1ccc(Cl)c(OCC(=O)Nc2ccc3c(c2)OCCO3)c1	-30	-0.2	14	10	-6%
CC(C)n1c(O)c(N=NC(=O)C2COc3ccccc3O2)c2ccccc21 (stereo unspecified)	/	/	0	14	2%
COc1ccccc1-n1cnc2cc(NC(C)=O)ccc21	1	-1.3	-2	-6	-2%
Cc1c(C)[n+](=O)c2c(n1[O-])CCCCC2	0	1.6	-6	14	4%
Cc1ccc(-n2c(C)nnc2SC(C)C(=O)N2CCCC2)cc1 (stereo unspecified)	/	-3.2	-6	/	/
COC(=O)C1=NN(c2ccccc2OC)C2C(=O)N(c3ccccc3OC)C(=O)C12 (stereo unspecified)	-1	-11	-3	2	2%
CC(C)CC(NC(=O)C(NC(=O)C1CCC(=O)N1C(=O)OCc1ccccc1)C(C)C)C(=O)N1CCCC1C(N)=O (stereo unspecified)	/	-1.1	-2	/	/
O=C(CCC(=O)Nc1ccccc1Cl)NNS(=O)(=O)c1ccc(Cl)cc1	/	-3.4	-1	/	/
C=C1SC(=Nc2ccccc2Cl)N(C(=O)c2sc3ccccc3c2Cl)C1(C)C	/	1.2	3	/	11%
COc1ccc(CNC(=O)C2CCN(S(=O)(=O)c3ccc4c(c3)CC(C)N4C(C)=O)CC2)cc1 (stereo unspecified)	/	1.6	2	/	/
COc1ccc(N2C(=O)c3ccccc3NC2c2ccc(OC)c(Cn3cc([N+](=O)[O-])cn3)c2)cc1 (stereo unspecified)	/	-11	-4	/	-11%
CCCOC(=O)/C(C)=N\NC(=O)c1ccco1	-23	-0.8	25	0	-2%
Cc1nc2scc(-c3cccs3)c2c(=O)o1	-46	3.7	19	0	7%	Arbovirus anti repeat=-1
O=C(CC(C(=O)O)C1CCCO1)NCCc1ccc2c(c1)OCO2 (stereo unspecified)	-34	-1.6	6	3	-2%
Cc1ccc(C)c(-n2cc(CN3CCCN(C=O)CC3)c(-c3ccccc3)n2)c1	/	-10	3	5	3%
S=c1[nH]c(-c2ccccc2)cn1-c1ccccc1	/	1.5	-4	/	/
COc1ccc(C2=NCN(c3ccc(C)cc3)C(=S)N2)cc1	-5	-2.1	2	0	-2%
O=C(O)/C=C\C(=O)Nc1ccc(Oc2ccc(Br)cc2)cc1	/	32*	1	3	-7%
(further entries)
SMILES	YopH inh	RecA intein inh	Mtb bLac sens	Arbovirus anti	Mtb H37Rv	others
COc1ccc(CNC(=O)NC2CCCCC2)cc1	-22	-1.9	-5	2	-2%
CCOc1ccc(C(=O)NCC(=O)OC(C)C(=O)NCc2ccco2)cc1OCC (stereo unspecified)	-35	0.0	-10	6	-13%
CCOCCCn1c(=NC(=O)c2ccco2)c(C(=O)OCC)cc2c(=O)n3cccc(C)c3nc21	/	-177	0	/	-7%
CCc1ccc(C(=O)COC(=O)c2cccs2)cc1	-6	6.7	96	1	/
CSc1cccc(N=C2C(=O)Nc3ccccc32)c1	/	-0.6	91	/	/
CCOC(=O)N1CCN(C(=O)c2cn(CC)c3ccc(S(=O)(=O)N4CCCCC4)cc3c2=O)CC1	/	-2.9	-1	16	8%
CCN(CC)C(=O)CSc1nc2cc3c(cc2c(=O)n1CCCC(=O)NCCc1ccc(OC)c(OC)c1)OCO3	/	/	-4	5	1%
CCCCN(C)C(=O)CCCc1c[nH]c2ccccc12	-11	/	1	2	-3%
Cc1ccc2cc3c(NC(=O)c4ccco4)nn(CC(C)C)c3nc2c1	-59	-12	5	-9	-11%
CC1CC(C)CN(c2ccc(S(=O)(=O)N3CCOCC3)cc2)C1 (stereo unspecified)	/	2.9	-7	/	/
Cc1ccc2c(C)c(C(=O)N(C)Cc3ccncn3)oc2c1C	/	-1.9	-7	/	/
CCCCN(C(=O)C1CC1)C1CCS(=O)(=O)C1 (stereo unspecified)	/	-1.7	-17	/	/
O=C(COC(=O)CN1C(=O)COc2ccccc21)NC1CCCCC1	/	-0.1	-20	/	/
CC(=O)Nc1ccc(-c2cc(-c3ccccc3)nc(-c3ccccc3)n2)cc1	-37	-0.2	-2	-7	6%
CCCc1cc(=O)oc2c(C)c(OCC(=O)N3CCC(C(=O)O)CC3)ccc12	/	-9.0	-10	/	/
N=c1c(C(=O)NCc2ccccc2)cc2c(=O)n3ccccc3nc2n1Cc1ccco1	-17	-263	-3	-4	7%
Cn1c2ccccc2c2c(C(=O)N3CCN(c4ccc(F)cc4)CC3)cn(C3CCCC3)c(=O)c21	-8	13	4	-10	-3%
CN(C)CCCO/N=C(\c1ccccc1)c1ccncc1	6	0.0	-1	-8	-2%
Cc1ccc(-n2ncc3c(=O)n(CC(=O)N4CCCCCC4)cnc32)cc1	-30	2.3	0	0	-14%
c1ccc(C[n+]2ccccc2)cc1	/	-2.5	-3	/	/
O=C(COc1ccc(Cl)cc1[N+](=O)[O-])N1CCCCC1	/	-0.4	2	-6	-7%
Cc1cc(NS(=O)(=O)c2ccc(Nc3nc(-c4sc(C)nc4C)cs3)cc2)no1	-1	/	/	5	-4%
NNC(=O)CC(=O)NC1(Cc2ccc(O)cc2)CCCCC1	/	0.1	6	-6	-3%
CCc1c(O)nc(SCC(N)=O)n(-c2ccccc2F)c1=O	-23	2.5	-13	1	-2%
CCOC(=O)C(C)Sc1nnc(NC(=O)c2cccc([N+](=O)[O-])c2C)s1 (stereo unspecified)	-16	-2.2	6	5	27%

Sorted by molecular weight (largest number first): some entries from above
SMILES	YopH inh	RecA intein inh	Mtb bLac sens	Arbovirus anti	Mtb H37Rv	others
CCN(CC)C(=O)CSc1nc2cc3c(cc2c(=O)n1CCCC(=O)NCCc1ccc(OC)c(OC)c1)OCO3	/	/	-4	5	1%
CN(C)CCCO/N=C(\c1ccccc1)c1ccncc1	6	0.0	-1	-8	-2%
c1ccc(C[n+]2ccccc2)cc1	/	-2.5	-3	/	/

(more compounds)
SMILES	YopH inh	RecA intein inh	Mtb bLac sens	Arbovirus anti	Mtb H37Rv	others
C=CCOC(=O)COc1ccc2c(C)c(C)c(=O)oc2c1	-18	1.4	97	5	35%	Arbovirus anti repeat=1
CC(Oc1ccccc1)C(=O)N1CCCc2ccccc21 (stereo unspecified)	-31	0.4	-24	-6	-11%
O=C(Nc1ccc2c(c1)OCO2)C1CC(c2ccccc2Cl)=NO1 (stereo unspecified)	-2	2.5	11	-14	1%
CCCC(CCC)c1nnc(NC(=O)c2ccco2)s1	/	-1.4	9	/	/
CN(C(=O)CCc1nnc(CCCCc2ccccc2)o1)C1CC(C)(C)NC(C)(C)C1	/	0.1	2	3	2%
Cc1ccc(N2NC(=O)/C(=C\c3cc4c(cc3[N+](=O)[O-])OCO4)C2=O)cc1C	-21	2.2	-7	-19	-5%
CCOC(=O)Cc1nnc(NC(=O)c2ncn[nH]2)s1	0	-2.0	-2	-4	-4%
N=c1sccn1CC(=O)Nc1cccc2ccccc12	6	-1.6	-14	4	-3%
COc1ccc(F)cc1C(=O)C1CCCN(C(=O)c2ccccc2N(C)C)C1 (stereo unspecified)	/	3.1	5	/	/
CC1CCC(C(=O)NNC(=O)c2cc(-c3ccco3)[nH]n2)CC1 (stereo unspecified)	/	0.1	2	1	-1%
CCCCN(C)C(=O)c1c[nH]c2ccc(S(=O)(=O)N3CCOCC3)cc2c1=O	-27	-7.6	-4	11	0%	Arbovirus anti repeat=-2
COc1ccccc1N1CCN(C(=O)CSc2nc(-c3ccco3)cc(C(F)(F)F)n2)CC1	-40	10	15	-24	2%
COc1cc(C2=NOC(C(=O)N3CCCc4ccccc43)C2)cc(OC)c1OC (stereo unspecified)	4	5.0	-3	0	0%
COc1ccc(CCC(=O)OCC(=O)N(CC(C)C)c2c(N)n(Cc3ccccc3)c(=O)[nH]c2=O)cc1	/	0.3	-8	/	/
COc1cc(NC(=O)CSc2nc3ccccc3n2-c2ccccc2)c(C)cc1[N+](=O)[O-]	-20	6.4	4	14	0%
CCn1c(SC(C)C(=O)NC2CCCc3ccccc32)nnc1-c1cccs1 (stereo unspecified)	3	2.6	-7	4	-2%
O=S(=O)(Cc1ccccc1)N1CCNCC1	/	2.1	3	/	/
Cc1cc(C)c(C#N)c(N2CCCC2)n1	-1	0.8	1	-2	-5%
O=C(CCCN1C(=O)c2ccccc2C1=O)NCc1ccc(F)cc1	/	2.9	-7	/	/

A stretch from the list above, for reference:
SMILES	YopH inh	RecA intein inh	Mtb bLac sens	Arbovirus anti	Mtb H37Rv	others
CC(Oc1ccccc1)C(=O)N1CCCc2ccccc21 (stereo unspecified)	-31	0.4	-24	-6	-11%
O=C(Nc1ccc2c(c1)OCO2)C1CC(c2ccccc2Cl)=NO1 (stereo unspecified)	-2	2.5	11	-14	1%
CCCC(CCC)c1nnc(NC(=O)c2ccco2)s1	/	-1.4	9	/	/
CN(C(=O)CCc1nnc(CCCCc2ccccc2)o1)C1CC(C)(C)NC(C)(C)C1	/	0.1	2	3	2%
Cc1ccc(N2NC(=O)/C(=C\c3cc4c(cc3[N+](=O)[O-])OCO4)C2=O)cc1C	-21	2.2	-7	-19	-5%
CCOC(=O)Cc1nnc(NC(=O)c2ncn[nH]2)s1	0	-2.0	-2	-4	-4%
N=c1sccn1CC(=O)Nc1cccc2ccccc12	6	-1.6	-14	4	-3%
COc1ccc(F)cc1C(=O)C1CCCN(C(=O)c2ccccc2N(C)C)C1 (stereo unspecified)	/	3.1	5	/	/
CC1CCC(C(=O)NNC(=O)c2cc(-c3ccco3)[nH]n2)CC1 (stereo unspecified)	/	0.1	2	1	-1%
CCCCN(C)C(=O)c1c[nH]c2ccc(S(=O)(=O)N3CCOCC3)cc2c1=O	-27	-7.6	-4	11	0%	Arbovirus anti repeat=-2
COc1ccccc1N1CCN(C(=O)CSc2nc(-c3ccco3)cc(C(F)(F)F)n2)CC1	-40	10	15	-24	2%
COc1cc(C2=NOC(C(=O)N3CCCc4ccccc43)C2)cc(OC)c1OC (stereo unspecified)	4	5.0	-3	0	0%
COc1ccc(CCC(=O)OCC(=O)N(CC(C)C)c2c(N)n(Cc3ccccc3)c(=O)[nH]c2=O)cc1	/	0.3	-8	/	/
COc1cc(NC(=O)CSc2nc3ccccc3n2-c2ccccc2)c(C)cc1[N+](=O)[O-]	-20	6.4	4	14	0%
CCn1c(SC(C)C(=O)NC2CCCc3ccccc32)nnc1-c1cccs1 (stereo unspecified)	3	2.6	-7	4	-2%
O=S(=O)(Cc1ccccc1)N1CCNCC1	/	2.1	3	/	/
